Compound activity from PubChem BioAssay.
YB-1 expression: YB-1 expression inhibition; delta delta Cp (YB-1 minus CDIP) (concentration not given with the values); AID 434959; U2OS, qRT-PCR YB-1 vs CDIP delta delta Cp, 16 h; stronger effect = higher value; zero = DMSO, each unit about twofold; 30,000 compounds, 0.37% hits;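 active = delta delta Cp rounded down to an integer at or above 3, about 3 SD of DMSO wells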;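 also: higher means less YB-1 transcript or more CDIP transcript relative to DMSO; stock transfer was 100 nL into about 100 µL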
PD-1 reverse act: activators reversing PD-1 mediated T-cell inhibition. AID 2316. primary human CD4 T cells, PD-L1 beads, CellTiter-Glo 96 h. 29,000 tested, under 10 active. activation, % (concentration not given with the values);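 active = replicate mean of 50% or more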;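 also: 0% = median vehicle wells and 100% = positive control; 100 nL library stock added to about 50 µL; numbers are from one replicate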
MITF inh: MITF inhibition. TRPM1 promoter luciferase, luminescence, 24 h. inhibition, % (no concentration beside the values). 37,000 compounds, 0.28% hits. AID 2240;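 active = most replicates at 85% or more, or half of them and the mean; inconclusive = half reach 85% but not the mean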;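 also: human melanocyte line stably carrying TRPM1 promoter luciferase reporter; 0% = vehicle wells and 100% = a positive control; the first replicate is given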
Shh pathway inh: Sonic Hedgehog pathway inhibition | Shh-LIGHT2 Gli-luciferase reporter, 30 h | inhibition, % (test concentration not listed) | 22,000 compounds, 2.1% hits | AID 2313;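 active = replicate mean of 65% or more; inconclusive = mean lower but half the replicates past it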;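 also: pathway switched on by Shh-conditioned medium diluted 1 in 25 in low serum; 100 nL library stock added to about 40 µL; 0% = median of neutral wells and 100% = positive control level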
An asterisk follows results filed as active; u = inconclusive; x = no result given. The list is partial, so the mix of outcomes need not match the whole.

SMILES	YB-1 expression	PD-1 reverse act	MITF inh	Shh pathway inh
C[C@@H]1CN([C@@H](C)CO)C(=O)c2cc(NC(=O)c3ccncc3)ccc2O[C@H]1CN(C)S(=O)(=O)c1ccccc1	-0.38	x	2	x
Cc1ccc(NC(=O)C(Cc2ccccc2)N2C(=O)C3C4CCC(C4)C3C2=O)cc1[N+](=O)[O-] (configuration not stated)	x	-2.2	-5	x
C[C@H]1CN([C@@H](C)CO)C(=O)c2cc(NC(=O)CCN3CCOCC3)ccc2O[C@@H]1CN(C)Cc1ccc(Oc2ccccc2)cc1	-0.068	-3.0	-6	x
Nc1nn(S(=O)(=O)c2cccc3nsnc23)cc1-c1ccc(Br)cc1	x	-0.7	32	x
C[C@H](CO)N1C[C@H](C)[C@H](CN(C)Cc2ccccc2)Oc2ccc(NC(=O)c3ccncc3)cc2C1=O	-0.22	-0.7	1	-1
C[C@H]1CN([C@@H](C)CO)C(=O)c2cccc(NC(=O)CCCCCC(=O)Nc3ccccc3N)c2O[C@H]1CN(C)S(=O)(=O)c1ccc(Cl)cc1	0.033	0.3	42	x
Cc1ccc(S(=O)(=O)N(C)C[C@H]2Oc3c(NC(=O)C4CCCCC4)cccc3C(=O)N([C@H](C)CO)C[C@@H]2C)cc1	0.096	1.1	-8	0
COc1ccc(C(=O)c2ccccc2)c(Oc2nc([N+](=O)[O-])nn2C)c1	x	0.6	25	x
C=C(C)[C@@]12O[C@@H]1[C@@]1(C)C(=CC2=O)CC[C@@H](O)[C@@H]1C	-0.21	0.1	48	50
C[C@H]1CN([C@@H](C)CO)C(=O)c2cc(NC(=O)Nc3cccc4ccccc34)ccc2O[C@H]1CN(C)C(=O)Nc1ccccc1	0.29	x	-1	26
COc1ccc(CN(C)C[C@@H]2Oc3ccc(NS(=O)(=O)c4cccs4)cc3C(=O)N([C@H](C)CO)C[C@H]2C)cc1	-0.19	x	-5	19
C[C@H]1CN([C@@H](C)CO)C(=O)c2cccc(NS(=O)(=O)c3ccc(F)cc3)c2O[C@H]1CN(C)CC1CC1	-0.11	0.5	-3	-9
COc1ccc(N(C(=O)c2cccnc2)S(=O)(=O)c2ccc3c(c2)n(C)c(=O)n3C)cc1	x	3.8	18	x
CC(C)NC(=O)Nc1ccc2c(c1)C(=O)N([C@H](C)CO)C[C@H](C)[C@@H](CN(C)S(=O)(=O)c1cn(C)cn1)OCCCC[C@@H](C)O2	0.15	0.6	-6	-22
O=C(NCCCn1ccnc1)C1CC(c2cccc(Br)c2)=NO1 (configuration not stated)	x	-2.2	27	x
Cc1noc(C)c1NC(=O)Nc1ccc2c(c1)CC(=O)N([C@H](C)CO)C[C@@H](C)[C@@H](CN(C)Cc1ccc(C(=O)O)cc1)O2	-0.066	0.2	2	x
C[C@@H]1CN([C@@H](C)CO)C(=O)c2cccc(NC(=O)c3ccncc3)c2O[C@@H]1CN(C)S(=O)(=O)c1cn(C)cn1	-0.084	0.5	-8	27
COc1ccc(CN(C)C[C@@H]2Oc3ccc(NC(=O)Cn4cnnn4)cc3C(=O)N([C@H](C)CO)C[C@H]2C)cc1	-0.53	x	-2	-30
C[C@@H]1CN([C@H](C)CO)C(=O)c2cc(NS(=O)(=O)c3ccc(Cl)cc3)ccc2O[C@@H]1CN(C)S(=O)(=O)c1ccccc1	0.33	0.5	-6	-3
O=C(O)C1CC=CCC1C(=O)Nc1ccccc1 (configuration not stated)	x	1.5	-8	x
C[C@@H]1CN([C@@H](C)CO)C(=O)c2cc(NC(=O)Cn3cnnn3)ccc2O[C@H]1CN(C)Cc1ccc2c(c1)OCO2	-0.28	1.4	11	-11
C[C@H]1CN([C@@H](C)CO)C(=O)Cc2cc(NC(=O)Cc3ccccc3)ccc2O[C@H]1CN(C)S(=O)(=O)c1ccc(Cl)cc1	-0.43	-3.2	7	-3
C[C@H]1CN([C@@H](C)CO)C(=O)Cc2cc(NC(=O)Nc3ccc(F)cc3)ccc2O[C@H]1CN(C)C	-0.12	0.6	-9	x
Cc1noc(C)c1NC(=O)N(C)C[C@H]1Oc2c(NC(=O)C3CCCCC3)cccc2C(=O)N([C@@H](C)CO)C[C@@H]1C	-0.3	3.4	-10	16
C[C@H](CO)N1C[C@H](C)[C@H](CN(C)C(=O)Nc2ccccc2)Oc2ccc(NC(=O)c3ccncc3)cc2CC1=O	-0.18	-1.5	-11	-43

Whole records from above:
C[C@H]1CN([C@@H](C)CO)C(=O)Cc2cc(NC(=O)Nc3ccc(F)cc3)ccc2O[C@H]1CN(C)C as listed: YB-1 expression = -0.12; PD-1 reverse act = 0.6; MITF inh = -9; Shh pathway inh = x
C[C@@H]1CN([C@@H](C)CO)C(=O)c2cc(NC(=O)c3ccncc3)ccc2O[C@H]1CN(C)S(=O)(=O)c1ccccc1 as listed: YB-1 expression = -0.38; PD-1 reverse act = x; MITF inh = 2; Shh pathway inh = x

(continued)
SMILES	YB-1 expression	PD-1 reverse act	MITF inh	Shh pathway inh
COc1ccc(CN(C)C[C@@H]2OCCCC[C@@H](C)Oc3ccc(NS(=O)(=O)c4c(C)noc4C)cc3C(=O)N([C@H](C)CO)C[C@@H]2C)cc1	-0.078	x	-6	43
Cc1noc(C)c1S(=O)(=O)N(C)C[C@@H]1Oc2ccc(NC(=O)Cc3cn(C)c4ccccc34)cc2CC(=O)N([C@@H](C)CO)C[C@@H]1C	0.31	x	17	9
Cc1nc(SCC(=O)c2cccs2)c2c3c(sc2n1)CCCC3	x	-3.8	-17	x
C[C@H](CO)N1C[C@H](C)[C@@H](CN(C)Cc2ccc(C(F)(F)F)cc2)Oc2c(NC(=O)Nc3ccc4c(c3)OCO4)cccc2C1=O	-0.37	-2.9	21	4
C[C@@H]1CN([C@H](C)CO)C(=O)c2cc(NS(=O)(=O)c3ccc(F)cc3)ccc2O[C@@H]1CN(C)Cc1ccc(C(F)(F)F)cc1	0.21	-0.6	13	14
Cc1noc(C)c1NC(=O)Nc1ccc2c(c1)C(=O)N([C@H](C)CO)C[C@H](C)[C@H](CN(C)S(=O)(=O)c1cccs1)O2	0.22	x	3	-33
C[C@H]1CN([C@@H](C)CO)C(=O)c2cc(NC(=O)C3CC3)ccc2O[C@H]1CN(C)S(=O)(=O)c1cccs1	0.49	6.4	1	x
C[C@H](CO)N1C[C@H](C)[C@H](CN(C)C(=O)NC2CCCCC2)Oc2ccc(NC(=O)Nc3ccc4c(c3)OCO4)cc2CC1=O	0.059	1.5	5	-13
C[C@@H]1CN([C@H](C)CO)C(=O)c2cccc(NS(=O)(=O)c3cccs3)c2O[C@@H]1CN(C)Cc1ccccc1	0.099	-0.9	-12	11
C[C@@H]1CN([C@@H](C)CO)C(=O)c2cccc(NC(=O)c3nc4ccccc4s3)c2O[C@@H]1CN(C)S(=O)(=O)c1cn(C)cn1	0.011	x	-2	18
Cc1ccc(-n2c(SCC(N)=O)nnc2-c2ccco2)cc1	x	0.6	-9	x
C[C@H]1CN([C@@H](C)CO)C(=O)c2cc(NS(=O)(=O)c3ccccc3)ccc2O[C@@H]1CN(C)Cc1ccc2c(c1)OCO2	0.27	-3.2	5	8
Cc1noc(C)c1S(=O)(=O)Nc1ccc2c(c1)C(=O)N([C@H](C)CO)C[C@H](C)[C@@H](CN(C)C(=O)NC(C)C)OCCCC[C@@H](C)O2	0.039	-0.4	-12	41
Cc1noc(C)c1NC(=O)Nc1cccc2c1O[C@@H](CN(C)C(=O)NC1CCCCC1)[C@H](C)CN([C@@H](C)CO)C2=O	-0.84	1.0	-3	40
COc1ccc(NC(=O)Nc2cccc3c2O[C@@H](CN(C)C(=O)Nc2ccc(F)cc2)[C@H](C)CN([C@H](C)CO)C3=O)cc1	-0.14	-0.8	-3	-9
Cc1ccc(S(=O)(=O)N(C)C[C@H]2Oc3c(cccc3N(C)C)C(=O)N([C@H](C)CO)C[C@H]2C)cc1	0.11	1.1	-1	-44
Cn1c(S(=O)(=O)CC(N)=O)nc2ccccc21	x	0.7	9	x
CS(=O)(=O)/C(C#N)=C/Nc1cnccn1	-0.0096	0.1	-1	-14
COc1ccc(NC(=O)Nc2ccc3c(c2)CC(=O)N([C@@H](C)CO)C[C@H](C)[C@@H](CN(C)Cc2ccc4c(c2)OCO4)O3)cc1	-0.21	0.8	-13	-35
CC1CCC(C(C)C)C(NC(=S)Nc2cccc(F)c2)C1 (configuration not stated)	-0.22	-23	66	102*
CC(C)NC(=O)N(C)C[C@H]1Oc2c(NC(=O)c3ccncc3)cccc2C(=O)N([C@@H](C)CO)C[C@H]1C	-0.098	1.3	5	11
C[C@H]1CN([C@@H](C)CO)C(=O)c2cc(NC(=O)Nc3ccccc3)ccc2O[C@@H]1CN(C)S(=O)(=O)c1ccc(F)cc1	0.18	x	-3	x
C[C@H](CO)N1C[C@H](C)[C@H](CN(C)C(=O)Nc2ccccc2)Oc2ccc(NC(=O)CCCN(C)C)cc2C1=O	0.38	6.2	-13	x
COc1cc(C(=O)N=C2C(C)=CC(=O)C=C2C)cc(OC)c1OC	0.17	-6.1	3	x
C[C@@H]1CN([C@H](C)CO)C(=O)Cc2cc(NC(=O)Nc3ccccc3)ccc2O[C@@H]1CN(C)Cc1ccc(-c2ccccc2)cc1	-0.24	-6.2	13	4
Next records follow:
SMILES	YB-1 expression	PD-1 reverse act	MITF inh	Shh pathway inh
C[C@H]1CN([C@@H](C)CO)C(=O)c2cc(NC(=O)CCC(F)(F)F)ccc2O[C@@H]1CN(C)Cc1ccc(Cl)c(Cl)c1	-0.21	-4.9	-10	x
CCOC(=O)C1=C(COCCN)NC(C)=C(C(=O)OC)C1c1ccccc1Cl (configuration not stated)	0.18	x	6	41
C[C@@H]1CN([C@@H](C)CO)C(=O)c2cc(NC(=O)CCN3CCOCC3)ccc2O[C@@H]1CN(C)CC1CC1	-0.23	0.4	2	5
Cc1noc(C)c1S(=O)(=O)Nc1cccc2c1O[C@@H](CN(C)Cc1ccncc1)[C@@H](C)CN([C@@H](C)CO)C2=O	0.35	x	-24	5
COc1cccc(NC(=O)COc2ccc(C(=S)N3CCN(C)CC3)cc2OC)c1	x	-4.7	38	x
Cn1nnnc1SCC(=O)Nc1ccccc1C(N)=O	x	1.3	-17	x
C[C@@H]1CN([C@H](C)CO)C(=O)Cc2cc(NS(=O)(=O)c3ccc(F)cc3)ccc2O[C@H]1CN(C)C(=O)Nc1ccccc1	-0.098	0.9	-7	8
C[C@@H]1CN([C@H](C)CO)C(=O)Cc2cc(NS(=O)(=O)c3cn(C)cn3)ccc2O[C@H]1CN(C)C	-0.1	x	-2	7
COC(=O)c1ccc(NC(=O)CSc2nnc(-c3ccccc3F)n2C)cc1	x	1.1	-2	x
Cc1noc(C)c1NC(=O)N(C)C[C@@H]1Oc2ccc(NC(=O)c3ccncc3)cc2C(=O)N([C@H](C)CO)C[C@@H]1C	-0.38	-1.1	2	7
CNC[C@@H]1Oc2ccc(NC(=O)Cc3cn(C)c4ccccc34)cc2C(=O)N([C@H](C)CO)C[C@@H]1C	0.029	0.9	1	x
Cc1ccc(S(=O)(=O)Nc2ccc3c(c2)C(=O)N([C@H](C)CO)C[C@H](C)[C@H](CN(C)S(=O)(=O)c2cn(C)cn2)OCCCC[C@@H](C)O3)cc1	0.4	0.3	6	x
CCC(C)CC(C)/C=C\C1OC2=C(C(=O)OC2(C)O)C(O)C1O (configuration not stated)	0.94	-8.3	u	u
CCOc1ccc(NC(=O)CSc2nnc(-c3cc(Cl)ccc3O)n2C)cc1	x	1.3	7	x
Cc1noc(C)c1NC(=O)N(C)C[C@@H]1Oc2ccc(NC(=O)CCC(F)(F)F)cc2CC(=O)N([C@H](C)CO)C[C@H]1C	-0.8	0.1	-5	58
Cc1ccc(S(=O)(=O)Nc2ccc3c(c2)C(=O)N([C@H](C)CO)C[C@H](C)[C@@H](CN(C)S(=O)(=O)c2ccc(C)cc2)OCCCC[C@@H](C)O3)cc1	0.13	x	9	19
CCOC(=O)C1CN(Cc2ccccc2)C(=O)C1=O (configuration not stated)	0.072	x	10	-7
C[C@H](CO)N1C[C@H](C)[C@@H](CN(C)Cc2ccc(Oc3ccccc3)cc2)Oc2ccc(NS(C)(=O)=O)cc2C1=O	-0.17	x	-2	21
C[C@H](CO)N1C[C@H](C)[C@@H](CN(C)C)Oc2ccc(NC(=O)CCCCCC(=O)Nc3ccccc3N)cc2C1=O	0.1	1.1	-7	x
Cc1noc(C)c1NC(=O)Nc1ccc2c(c1)C(=O)N([C@@H](C)CO)C[C@@H](C)[C@H](CN(C)C(=O)Nc1cccc3ccccc13)O2	0.073	x	0	-15
C[C@@H]1CN([C@@H](C)CO)C(=O)c2cccc(NC(=O)Nc3ccc4c(c3)OCO4)c2O[C@H]1CN(C)C	-0.31	x	-14	14
CNC[C@H]1Oc2c(NS(=O)(=O)c3ccccc3)cccc2C(=O)N([C@@H](C)CO)C[C@@H]1C	-0.16	1.1	-2	-27
C[C@@H]1CN([C@H](C)CO)C(=O)Cc2cc(N(C)C)ccc2O[C@H]1CN(C)Cc1ccncc1	0.089	0.1	-9	-26
Cc1ccc(S(=O)(=O)Nc2ccc3c(c2)C(=O)N([C@H](C)CO)C[C@H](C)[C@H](CN(C)S(C)(=O)=O)OCCCC[C@@H](C)O3)cc1	-0.32	0.3	-6	-18
